Source: PubChem BioAssay (several laboratories)
Sa ugtP lethal: compounds lethal to S. aureus RN4220 ugtP deletion mutant | OD600 growth, 16 h; some inactives read as strong as hits | growth inhibition, % (test concentration not listed) | 330,000 compounds, 0.54% hits;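 active means z-score under -3 and OD600 up to 0.15 on both plates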;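 further: plate controls were untreated wells for no effect and antibiotic for full effect; wells of about 80 µL received 100 nL stock; the first replicate is given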
Sa RN4220 lethal: S. aureus RN4220 growth inhibition. 330,000 compounds, 0.33% hits. inhibition, % (concentration not given with the values). OD600, 16 h;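 active means z-score of -3 or lower and OD600 up to 0.18 on both plates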;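 further: plate controls were untreated cells for no effect and reference antibiotic for full effect; stock transfer was 100 nL into about 80 µL; one replicate is shown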
BJeLR lethal: kills HRASV12-expressing BJeLR cells; BJeLR (HRASV12) viability, CellTiter-Glo ATP luminescence, 48 h; reference of the scale not given here; inhibition, % (test concentration not listed); 300,000 compounds, 0.17% hits;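 active means replicate mean above 50%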;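 further: 50 nL library stock added to about 25 µL; numbers are from one replicate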
Mtb hypoxia rep: inhibitors of hypoxia-regulated fluorescent reporter in Mycobacterium tuberculosis; M. tuberculosis hypoxia-regulated fluorescent reporter, fluorescence; fluorescence inhibition, % (test concentration not listed); 300,000 compounds, 0.1% hits; AID 1159583;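 active means 35 to 45% if threefold the growth effect, above 45% if 1.5-fold the growth effect; inactive means the rest, general growth blockers included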;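 further: wells of about 50 µL received 100 nL stock; 0% = vehicle wells and 100% = reference inhibitor wells; whole bacteria with a GFP reporter of the hypoxia response; strong numbers were not always called active; many hits fall short of the cut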
PrP 5UTR inh: inhibition of PrP 5' UTR reporter expression | inhibition, % (test concentration not listed) | cell-based PrP 5' UTR mRNA reporter, plate reader | AID 488862 | 340,000 compounds, 0.35% hits;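 active means every replicate at 50% or more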;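 further: 0 = median of the neutral control wells; tested in H4 reporter cells; numbers are from one replicate; inactives centre near -14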
Autofluor counter: compound fluorescence in toxin protease inhibitor counterscreen. fluorescence intensity (test concentration not listed). 360,000 compounds, 3.1% hits. AID 624483. compound autofluorescence counterscreen, microsphere flow cytometry; hits give high values;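 active means at least 3 SD above the mean of all compounds, about 16000 in these data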;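 further: 100 nL of 1 mM stock went into each well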
Mtb hypoxia rep growth: second read-out of Mtb hypoxia rep, no call of its own (marks repeat the call); growth inhibition, %; measured here: M. tuberculosis growth (absorbance);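 0% = vehicle and 100% = reference antibiotic; read after six days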
* = called active by the depositor.

Screening CCn1nc(C)c(Br)c1-c1nc(-c2ccc(C)cc2)no1 returned Sa ugtP lethal 9, Sa RN4220 lethal 0.5, BJeLR lethal -1, Mtb hypoxia rep 1, Autofluor counter 3714 and Mtb hypoxia rep growth 11.
Screening CC(=O)c1cccc(S(=O)(=O)N2CCC(C(=O)Oc3ccc(-c4nnco4)cc3)CC2)c1 returned Sa ugtP lethal -6, Sa RN4220 lethal 3.7, Mtb hypoxia rep 3, PrP 5UTR inh -4, Autofluor counter 3414 and Mtb hypoxia rep growth 10.
Screening CCCCn1c(N)c(N(CC(C)C)C(=O)c2cc(Br)c(Br)s2)c(=O)[nH]c1=O returned Sa ugtP lethal 4, Sa RN4220 lethal -0.1, Mtb hypoxia rep 5, PrP 5UTR inh -5, Autofluor counter 3453 and Mtb hypoxia rep growth 6.
`COC(=O)c1ccccc1NC1=C/C(=N\S(=O)(=O)c2ccc(C(=O)O)cc2)c2ccccc2C1=O` gave Sa ugtP lethal -7, Sa RN4220 lethal 16, BJeLR lethal 5, Mtb hypoxia rep 6, PrP 5UTR inh -8, Autofluor counter 4516 and Mtb hypoxia rep growth 13.
`Cc1cc(NCCCO)n2nc(-c3cccs3)cc2n1` gave Sa ugtP lethal -3, Sa RN4220 lethal 2.3, BJeLR lethal 4, Mtb hypoxia rep 6, PrP 5UTR inh -19, Autofluor counter 2538 and Mtb hypoxia rep growth 1.
Screening Cc1cc(C)n(-c2ccc(C(=O)Nc3sccc3C(N)=O)cc2)n1 returned Sa ugtP lethal -15, Sa RN4220 lethal 6.9, BJeLR lethal -3, PrP 5UTR inh -108 and Autofluor counter 2972.
Screening COc1ccc(/C=C(/NC(=O)c2ccco2)C(=O)N2CCCC2=O)cc1 returned Sa ugtP lethal 1, Sa RN4220 lethal 3.5, BJeLR lethal -6, Mtb hypoxia rep -1, PrP 5UTR inh -25, Autofluor counter 2339 and Mtb hypoxia rep growth 0.
Screening CCOc1cccc2sc(NC(=O)c3ccc(Br)s3)nc12 returned Sa ugtP lethal 23, Sa RN4220 lethal -14, BJeLR lethal 0, Mtb hypoxia rep 2, PrP 5UTR inh -25, Autofluor counter 5780 and Mtb hypoxia rep growth -3.
COc1ccc(NC(=O)c2ccc(F)c(F)c2)c2ccccc12 was read as Sa ugtP lethal -4, Sa RN4220 lethal 16, BJeLR lethal 2, Mtb hypoxia rep 26, PrP 5UTR inh -6, Autofluor counter 5522 and Mtb hypoxia rep growth 21.
Screening COC(=O)[C@H](Cc1ccc(O)cc1)NC(=O)Cn1cnc2c(NCc3ccccc3)ncnc21 returned Sa ugtP lethal 2, Sa RN4220 lethal 4.0, Mtb hypoxia rep -6, PrP 5UTR inh -9, Autofluor counter 3082 and Mtb hypoxia rep growth 11.
Cc1nn(CC(=O)N2CCOCC2)c(=O)c2c1sc1ccccc12 was read as Sa ugtP lethal -9, Sa RN4220 lethal 3.4, BJeLR lethal 0, Mtb hypoxia rep 10, PrP 5UTR inh -5, Autofluor counter 6654 and Mtb hypoxia rep growth 7.
Cc1ccc(-c2n[nH]c(=O)c3ccccc23)cc1N was read as Sa ugtP lethal -3, Sa RN4220 lethal 0.4, BJeLR lethal 3, Mtb hypoxia rep -7, PrP 5UTR inh -31, Autofluor counter 5415 and Mtb hypoxia rep growth -6.
For O=C(Nc1ccccc1O)c1ccc(C(=O)c2ccccc2)o1 the results were Sa ugtP lethal 2, Sa RN4220 lethal -1.2, BJeLR lethal 13, Mtb hypoxia rep 14, PrP 5UTR inh -24, Autofluor counter 3709 and Mtb hypoxia rep growth 18.
Cc1cc(C=O)c(C)n1-c1cc(C(F)(F)F)ccc1N1CCOCC1 was read as Sa ugtP lethal 8, Sa RN4220 lethal 6.1, BJeLR lethal 6, Mtb hypoxia rep -4, PrP 5UTR inh -20, Autofluor counter 3084 and Mtb hypoxia rep growth -5.
For CN(Cc1cccc(F)c1)C(=O)c1cc(S(=O)(=O)N2CCOCC2)ccc1N1CCCC1 the results were Sa ugtP lethal -7, Sa RN4220 lethal 0.7, Mtb hypoxia rep -3, PrP 5UTR inh -14, Autofluor counter 2864 and Mtb hypoxia rep growth -2.
`Nn1c(SCc2cccc(Br)c2)nnc1-c1ccncc1` gave Sa ugtP lethal 3, Sa RN4220 lethal 1.5, BJeLR lethal 4, Mtb hypoxia rep 7, PrP 5UTR inh -10, Autofluor counter 3789 and Mtb hypoxia rep growth 4.
Screening COc1ccc(NC(=O)CCc2c(C)nc3nc(CNC(=O)c4cccc(F)c4)nn3c2C)cc1OC returned Sa ugtP lethal 7, Sa RN4220 lethal 2.4, BJeLR lethal 3, Mtb hypoxia rep 1, PrP 5UTR inh 1, Autofluor counter 4508 and Mtb hypoxia rep growth -3.
`Cc1ccc(C(=O)O)cc1NC(=O)Nc1ccc2c(c1)OCO2` gave Sa ugtP lethal 2, Sa RN4220 lethal 3.2, BJeLR lethal 3, Mtb hypoxia rep 0, PrP 5UTR inh -4, Autofluor counter 2407 and Mtb hypoxia rep growth -6.
Screening COC(=O)c1ccc(CSc2nnc(NC(C)C)s2)cc1 returned Sa ugtP lethal 12, Sa RN4220 lethal 7.0, BJeLR lethal -6, Mtb hypoxia rep 2, PrP 5UTR inh -10, Autofluor counter 2179 and Mtb hypoxia rep growth -2.
CCN1CCN(CCCNC(=O)C2CCN(c3nnc(-n4cccc4)s3)CC2)CC1 was read as Sa ugtP lethal 0, Sa RN4220 lethal 1.0, BJeLR lethal 2, Mtb hypoxia rep 2, PrP 5UTR inh -15, Autofluor counter 4492 and Mtb hypoxia rep growth -11.
Screening CSC(=NC(C)c1ccccc1)NS(=O)(=O)c1cccs1 (stereo not drawn) returned Sa ugtP lethal 6, Sa RN4220 lethal 5.3, BJeLR lethal -2, Mtb hypoxia rep 2, PrP 5UTR inh -34, Autofluor counter 1963 and Mtb hypoxia rep growth 8.
Screening CSC(=NC#N)N1CCN(c2cccc(Cl)c2)CC1 returned Sa ugtP lethal -5, Sa RN4220 lethal 0.1, BJeLR lethal 9, Mtb hypoxia rep -7, PrP 5UTR inh -6, Autofluor counter 4282 and Mtb hypoxia rep growth -6.
COC(=O)C(=NNc1ccccc1)Sc1nnc(-c2ccc(OC)cc2)n1C was read as Sa ugtP lethal 1, Sa RN4220 lethal 1.7, Mtb hypoxia rep -3 and Mtb hypoxia rep growth 0.
Screening CN1C(=O)/C(=C/c2ccc(OC(=O)c3ccco3)cc2)SC1=S returned Sa ugtP lethal 12, Sa RN4220 lethal 8.5, BJeLR lethal -11, Mtb hypoxia rep 4, PrP 5UTR inh -26, Autofluor counter 5028 and Mtb hypoxia rep growth 10.
`C=C1CCN(c2ccc(C(=O)NCc3ccccc3)cc2[N+](=O)[O-])CC1` gave Sa ugtP lethal 4, Sa RN4220 lethal -0.8, BJeLR lethal 3, Mtb hypoxia rep 7, PrP 5UTR inh -16, Autofluor counter 3928 and Mtb hypoxia rep growth 5.
For O=C(NC(Cc1ccccc1)C(=O)O)NC12CC3CC(CC(C3)C1)C2 (stereo not drawn) the results were Sa ugtP lethal 4, Sa RN4220 lethal 8.3, BJeLR lethal 6, Mtb hypoxia rep -5, PrP 5UTR inh -27, Autofluor counter 4174 and Mtb hypoxia rep growth 2.
For CC(=O)Nc1ccc(S(=O)(=O)N2CCC(Oc3ccc(-n4cnnn4)cc3)CC2)cc1 the results were Sa ugtP lethal 3, Sa RN4220 lethal 3.6, BJeLR lethal -8, Mtb hypoxia rep 6, PrP 5UTR inh -14, Autofluor counter 5083 and Mtb hypoxia rep growth 5.
COCC(=O)Nc1ccc(Nc2ccccc2)cc1 was read as Sa ugtP lethal 10, Sa RN4220 lethal 2.9, BJeLR lethal -9, Mtb hypoxia rep 5, PrP 5UTR inh -13, Autofluor counter 8353 and Mtb hypoxia rep growth 8.
COc1ccc(/C=N\NC(=O)c2c(C)nc3ccc(Br)cn23)cc1 was read as BJeLR lethal 35, PrP 5UTR inh 38 and Autofluor counter 1988.
Cc1nnc(SC(C)C(=O)NCC2CCCO2)n1-c1ccccc1 (stereo not drawn) was read as Sa ugtP lethal 1, Sa RN4220 lethal 2.3, BJeLR lethal 1, Mtb hypoxia rep 4, PrP 5UTR inh -24, Autofluor counter 6014 and Mtb hypoxia rep growth 8.
Screening CCN(CC)CC(C)(C)NS(=O)(=O)c1ccc(Cl)cc1 returned Sa ugtP lethal 7, Sa RN4220 lethal 0.4, BJeLR lethal -3, Mtb hypoxia rep 6, PrP 5UTR inh -11, Autofluor counter 7892 and Mtb hypoxia rep growth 0.
Screening CC(C)(C)c1ccc(C=NNC(=O)Cc2c[nH]c3ccccc23)cc1 returned Sa ugtP lethal 2, Sa RN4220 lethal 11, Mtb hypoxia rep 8 and Mtb hypoxia rep growth 3.
For COc1ccc(-n2c(SCC(=O)Nc3ncc(Cl)cc3Cl)nc3ccccc32)cc1 the results were Sa ugtP lethal 0, Sa RN4220 lethal -1.5, BJeLR lethal 22, Mtb hypoxia rep 8 and Mtb hypoxia rep growth 2.
`CN(Cc1ccccc1)C1=CC(=[N+]2CCCC2)CC(C)(C)C1` gave Sa ugtP lethal 1, Sa RN4220 lethal 4.0, BJeLR lethal 14, Mtb hypoxia rep 5, PrP 5UTR inh -11, Autofluor counter 4393 and Mtb hypoxia rep growth 0.
For CC1CCCN(C(=O)c2ccc3c(=O)n(Cc4ccc5c(c4)OCO5)c(=S)[nH]c3c2)C1 (stereo not drawn) the results were Sa ugtP lethal 24, Sa RN4220 lethal -13, BJeLR lethal -3, Mtb hypoxia rep 0, PrP 5UTR inh -7, Autofluor counter 22529* and Mtb hypoxia rep growth 3.
For CN(c1ccccc1)c1nc2ccsc2c(=O)s1 the results were Sa ugtP lethal 5, Sa RN4220 lethal 17, BJeLR lethal -9, Mtb hypoxia rep 13, PrP 5UTR inh -45, Autofluor counter 21828* and Mtb hypoxia rep growth 11.
Cc1cc(C)cc(NC(=O)CSc2ccc(-c3ccco3)nn2)c1 was read as Sa ugtP lethal -4, Sa RN4220 lethal 6.0, BJeLR lethal -8, Mtb hypoxia rep 12, PrP 5UTR inh -11, Autofluor counter 7906 and Mtb hypoxia rep growth 5.
`CC(=NNC(=O)COc1ccc(C(C)(C)C)cc1)c1ccc(OC(F)F)cc1` gave Sa ugtP lethal -9, Sa RN4220 lethal 1.1, Mtb hypoxia rep -13 and Mtb hypoxia rep growth -9.
